Vif A3G: HIV-1 Vif–A3G interaction blockers – biochemical, TR-FRET, GST-Vif 1-94, biotin-A3G peptide, dose response retest, primary screen (AID 1117319); inhibition, %; hits with a dose series show IC50 in µM; TR-FRET GST-Vif / biotin-A3G peptide binding; higher % means a stronger effect; test concentration not given here; strong numbers were not always called active; hit rate 0.57% among 260,000;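 active means above the screen mean plus three standard deviations and confirmed in dose response; inconclusive means results disagree or hit not tested in dose response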;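 further: Vif residues 1-94 fused to GST binding biotinylated APOBEC3G peptide 110-148; 0% = full assay without inhibitor and 100% = GST in place of GST-Vif; retest series ran down from 100 µM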
AF4-AF9 inh: blocks AF4 peptide binding to human AF9; inhibition, % at 10 µM; hit rate 0.47% among 350,000; AID 651704; P42568; AlphaScreen, biotin-AF4 peptide binding to FLAG-AF9;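 active means every replicate reaching a set inhibition limit, whatever the replicate mean, cut at about 25% in these data; inconclusive means mean inhibition reaches that limit but some replicates miss it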;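 further: 0% = plate neutral control median and 100% = total signal loss; the record names both 10 and 1 µM as test concentration; the first replicate is given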
Target sequence (P42568 whole entry, looked up): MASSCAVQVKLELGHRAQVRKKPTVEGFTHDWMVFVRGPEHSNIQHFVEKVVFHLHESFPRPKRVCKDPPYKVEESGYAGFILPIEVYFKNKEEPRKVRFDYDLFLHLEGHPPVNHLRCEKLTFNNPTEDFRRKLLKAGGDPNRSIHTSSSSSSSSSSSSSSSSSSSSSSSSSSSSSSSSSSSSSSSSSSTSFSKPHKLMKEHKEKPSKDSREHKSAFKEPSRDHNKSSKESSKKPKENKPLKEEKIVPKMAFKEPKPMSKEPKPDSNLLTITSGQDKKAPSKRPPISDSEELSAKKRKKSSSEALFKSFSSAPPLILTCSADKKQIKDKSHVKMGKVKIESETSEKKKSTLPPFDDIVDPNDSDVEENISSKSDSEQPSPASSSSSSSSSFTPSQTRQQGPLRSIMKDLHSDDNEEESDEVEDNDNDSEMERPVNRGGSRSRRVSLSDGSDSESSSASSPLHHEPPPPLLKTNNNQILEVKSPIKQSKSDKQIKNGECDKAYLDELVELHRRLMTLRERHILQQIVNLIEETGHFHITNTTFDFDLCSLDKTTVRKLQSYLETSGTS
Ecoli rRNA inh: selective bacterial rRNA inhibition in E. coli. E. coli WT GFP vs humanized-ribosome RFP mutants, fluorescence, 24 h; active compounds read low; DMSO median 0, no signal -100. GFP signal change (wild-type ribosome), % (concentration not given with the values). hit rate 1.6% among 350,000;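 active means significant combined selectivity score with lowered wild-type GFP, culture density cut under 30%, mutant RFP and density less affected; inactive means any of these conditions unmet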; further: one replicate is shown; some compounds called inactive have numbers as strong as hits
Ecoli rRNA inh OD600: further read-out of Ecoli rRNA inh, marked with its call; OD600 change, %; measured here: OD600 growth;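 optical density of the mix in the first replicate; 0 = DMSO median and -100 = no signal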
Ecoli rRNA inh RFP: recorded beside Ecoli rRNA inh, whose call it bears; RFP signal change, %; measured here: RFP humanized mutant strains;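 first replicate; 0 = DMSO median and -100 = no signal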
* marks the source's active call; other numbers are inactive results; ? = inconclusive; & = joins results of further samples. An excerpt; rates above refer to the full screens.

Ecoli rRNA inh,AF4-AF9 inh,Vif A3G,Ecoli rRNA inh OD600,Ecoli rRNA inh RFP,SMILES
-22,-1.8,-8%,-26,0.2,COc1ccc(NC(=O)C[C@H]2C(=O)N(CCc3ccccc3)C[C@@H]2Cc2ccccc2)cc1
7,0.9,-1%,4,-0.6,CC(C)C[C@@H](CNCC(=O)[C@H](CC(C)C)NC(=O)c1[nH]cnc1C(=O)N[C@@H](C)CN)NC(=O)c1nc[nH]c1C(=O)N[C@@H](CC(=O)O)C(=O)O
5,-1.7,2%,10,1.8,Cc1cc(C)c(SSc2nnnn2-c2ccccc2)c(C)c1
-16*,3.4,-1%,-22*,2.5*,Cc1cccc(CSCC(=O)N2CCN(S(=O)(=O)c3ccccc3C#N)CC2)c1
-2,-0.8,60%,5,-4.6,CCN1C[C@@H]2[C@@H]3C(=O)N(Cc4ccccc4)C(=O)[C@@H]3[C@](C)(C(=O)OC)N2C1=NC1CCCCC1
-11,0.7,0%,0,0.0,Cn1cccc1C(=O)OCC(=O)N1CCc2ccccc2C1
-6,-1.5,2%,10,-1.3,CNC(=O)C[C@H]1C(=O)N(Cc2ccccc2)C[C@@H]1Cc1ccccc1
-4,-4.3,0%,3,2.2,O=C(Cc1ccc(NC(=O)C2CCCN(C(=O)C3CCCC3)C2)cc1)Nc1cccc(C(=O)N2CCCC2)c1 (configuration not stated)
5,-0.8,-3%,2,6.2,COC(=O)[C@H]1C[C@H](OC(=O)NCc2ccco2)[C@@]2(O)CN(S(=O)(=O)c3ccc(C)cc3)CC2[C@H]1C(=O)OC (some centres not stated)
4,-2.6,4%,12,0.2,CC(C)Cn1cnc2c(Sc3c([N+](=O)[O-])ncn3C)nc(N)nc21
2,0.4,-1%,-1,4.3,Cc1ccc(-c2cc(C(=O)OCC(=O)NC3CC3)c3ccccc3n2)cc1
6,4.4,-2%,8,-0.1,CC(=O)Nc1ccc(C=CC(=O)c2ccc([N+](=O)[O-])cc2)cc1
8,0.3,17%,10,6.1,CC(C)(C)S(=O)N1Cc2cc(CO)cc(-c3ccccc3)c2[C@@H]1CCO (some centres not stated)
15,4.3,-10%,20,1.3,O=C1NN(c2ccccc2)C(=O)C1=Cc1ccccc1O
5,1.0,0%,9,0.4,O=[N+]([O-])c1cccc(C=NNC(=S)NC23CC4CC(CC(C4)C2)C3)c1
0,-11,-9%,2,-0.1,O=C(Nc1ccccc1Cl)Nc1ccnn1C1CCN(C(=O)C2CCOC2)CC1 (configuration not stated)
0,-0.8,-2%,10,0.3,CCOC(=O)c1ccc(NC(=O)Nc2nc3ccccc3s2)cc1
-19,-0.5,7%,-22,-3.5,CC(OC(=O)C1=COCCO1)C(=O)c1ccc(C(C)(C)C)cc1 (configuration not stated)
-23*,-1.9,-3%,-16*,2.2*,COc1ccc2cc(C[C@@H]3CC[C@@H](CO)O3)ccc2c1
15,7.2,8%,9,3.6,c1ccc(Oc2ncnc3ccccc23)cc1
26,?,-7%,23,4.1,c1ccc(-c2cnc(C3CCCCC3)o2)cc1
0&-2,-4.6&-0.6,-5%,-4&-1,0.7&0.6,C[C@@H]1CN([C@@H](C)CO)C(=O)CCCn2cc(nn2)CO[C@H]1CN(C)S(=O)(=O)c1ccc(Oc2ccccc2)nc1
15,-0.3,1%,11,0.1,CC(=O)N1CCN(C(=O)CCNC(=O)c2ccc(Br)cc2)CC1
6&-1,-10&-0.6,1%,16&1,-0.3&-1.0,CC(C)OC(=O)N(C)C[C@H]1OCc2cnnn2CCCC(=O)N([C@H](C)CO)C[C@@H]1C
20,-1.5,-9%,8,-0.6,CCN(CC)C(=O)[C@H]1C[C@H](CC(=O)NCC23CC4CC(CC(C4)C2)C3)C(=O)N2CCc3c([nH]c4ccc(Cl)cc34)[C@]12C
-20*,5.0,11%,-3.0*,4.1*,Nc1ccccc1SC(CC(=O)c1ccccc1)c1ccc([N+](=O)[O-])cc1 (configuration not stated)
-14,0.4,9%,-14,-1.8,Cc1cccc(-c2n[nH]nc2C2=CC(=O)CC(C)(C)C2)c1
6,-6.2,2%,4,0.2,COC(=O)c1ccc2c(c1)C(NC(C)=O)CCc1cc(OC)c(OC)c(OC)c1-2 (configuration not stated)
3,-5.3,4%,0,2.5,O=C(NCC1CCCO1)C1CCN(S(=O)(=O)c2cccc3cccnc23)CC1 (configuration not stated)
14,-0.2,9%,13,0.3,O=C(N/N=C/c1coc2ccccc2c1=O)c1cc(O)cc(O)c1
-5,-1.9,1%,9,-4.1,CN(C(=O)c1cccc(NC(=O)Cc2ccc(NC(=O)C3CCCN(C(=O)C4CCCCC4)C3)cc2)c1)C1CCC1 (configuration not stated)
-5,9.6,-4%,-8,6.7,O=C(c1ccc2ccccc2c1O)N1CCCCC1
7,0.5,1%,8,0.4,CCOC(=O)C1=C(C(=O)OCC)N(CC2CCCCC2)CCC1=O
-5,-1.3,2%,-14,-3.7,N#CC(=Cc1ccnc2ccccc12)c1ccccc1
11,25*,-1%,19,2.6,c1ccc(CNCCCNCCCCNCCCNCc2ccccc2)cc1
6,3.7,0%,26,-1.6,CC(=O)c1c(O)c(C)c(O)c2c1OC1=Cc3c(c(C)nn3-c3ccccc3)C(=O)C12C (configuration not stated)
3,-1.7,9%,9,-0.9,COC(=O)c1cccc(NC(=O)CN2C(=O)C3CCCCC3C2=O)c1 (configuration not stated)
-1,-5.4,1%,7,-1.9,O=C(Cc1ccc(F)cc1)N[C@@H]1c2ccccc2CC[C@@H]1OCc1ccccc1
-4,4.9,0%,-3,-2.2,Cc1ccc(C(=O)OCC(=O)N2CCNC2=O)c(C)c1
3,-0.4,-4%,3,-1.2,Cc1ccccc1NC(=O)COC(=O)CCC(=O)c1cccs1
4&-4,-2.9&0.8,-5%,-6&-6,2.5&0.9,C[C@@H]1CN([C@H](C)CO)C(=O)CCCn2nncc2CO[C@H]1CN(C)S(=O)(=O)c1ccc(Oc2ccccc2)nc1
14,-1.2,-3%,13,7.2,O=C(CCCc1ccccn1)c1ccccc1
6,-4.5,1%,6,-0.3,Cc1ccc(-n2c(SCC(=O)c3c(N)n(C4CC4)c(=O)[nH]c3=O)nnc2N2CCOCC2)cc1
-47,5.4,-7%,-73,-18,CCOC(=O)C1=C(c2ccccc2)c2ccccc2N(S(=O)(=O)C(F)(F)F)C1C(=O)OCC (configuration not stated)
2,1.7,-4%,13,-1.8,CC1CCC(NC(=O)c2cccc(S(=O)(=O)N3CCOCC3)c2)CC1 (configuration not stated)
-3,-1.6,0%,-4,-0.6,COc1cc(CNC(=O)c2cc(C(=O)NCc3cc(OC)cc(OC)c3)n(C)n2)cc(OC)c1
-60,9.8,7%,-76,-21,ON=C(c1ccccc1)c1ccc2c3c(cccc13)CC2
7,0.6,-5%,6,1.1,OC(Cc1ccncc1)c1ccccc1Cl (configuration not stated)
-3,-3.8,-5%,-3,1.1,O=C1CCC(c2ccc3ccccc3c2)O1 (configuration not stated)
15,0.1,-5%,12,2.7,CCOC(=O)C1CC2=C(CCCC2=O)NC1=O (configuration not stated)

By substructure, the compounds so far with an aryl thioether with sulfur outside any ring
Ecoli rRNA inh,AF4-AF9 inh,Vif A3G,Ecoli rRNA inh OD600,Ecoli rRNA inh RFP,SMILES
4,-2.6,4%,12,0.2,CC(C)Cn1cnc2c(Sc3c([N+](=O)[O-])ncn3C)nc(N)nc21
-20*,5.0,11%,-3.0*,4.1*,Nc1ccccc1SC(CC(=O)c1ccccc1)c1ccc([N+](=O)[O-])cc1 (configuration not stated)
6,-4.5,1%,6,-0.3,Cc1ccc(-n2c(SCC(=O)c3c(N)n(C4CC4)c(=O)[nH]c3=O)nnc2N2CCOCC2)cc1

The listing picks up with the seven entries that preceded the break.
Ecoli rRNA inh,AF4-AF9 inh,Vif A3G,Ecoli rRNA inh OD600,Ecoli rRNA inh RFP,SMILES
-47,5.4,-7%,-73,-18,CCOC(=O)C1=C(c2ccccc2)c2ccccc2N(S(=O)(=O)C(F)(F)F)C1C(=O)OCC (configuration not stated)
2,1.7,-4%,13,-1.8,CC1CCC(NC(=O)c2cccc(S(=O)(=O)N3CCOCC3)c2)CC1 (configuration not stated)
-3,-1.6,0%,-4,-0.6,COc1cc(CNC(=O)c2cc(C(=O)NCc3cc(OC)cc(OC)c3)n(C)n2)cc(OC)c1
-60,9.8,7%,-76,-21,ON=C(c1ccccc1)c1ccc2c3c(cccc13)CC2
7,0.6,-5%,6,1.1,OC(Cc1ccncc1)c1ccccc1Cl (configuration not stated)
-3,-3.8,-5%,-3,1.1,O=C1CCC(c2ccc3ccccc3c2)O1 (configuration not stated)
15,0.1,-5%,12,2.7,CCOC(=O)C1CC2=C(CCCC2=O)NC1=O (configuration not stated)
-11,2.7,?,-27,-2.7,CCOC(=O)c1c(C)oc2c1c(CN1CCN(CCO)CC1)c(O)c1ccccc12
21,-1.1,-2%,16,5.1,CCOC(=O)/C(=C(/C)N)C1CC(=O)NC1=O (configuration not stated)
-5,-1.4,-4%,-8,2.9,Cc1ccc(C)c(SCC(=O)Nc2cc(S(=O)(=O)N3CCOCC3)ccc2C)c1
19,9.9,-2%,18,3.5,O=[N+]([O-])c1ccc(NN=C(c2ccccc2)c2ccccc2)nc1
-21*,0.5,-5%,-15*,-0.4*,COC(=O)[C@@]1(C)[C@H]2C(=O)N(Cc3ccccc3)C(=O)[C@H]2[C@H]2CN=C(SCc3ccc(Cl)cc3)N21
-9.6*,-3.9,-2%,4.4*,12*,O=C(O)c1ccc(Oc2ccc([N+](=O)[O-])cc2)c([N+](=O)[O-])c1
7,-3.3,-7%,8,1.2,COc1cc(NC(=O)CCn2c(=S)[nH]c3ccccc3c2=O)cc(OC)c1OC
-48,3.4,28%,-77,-16,O=c1c(Br)ccc(Br)cc1Br
15,-5.6,3%,3,4.6,CCOc1ccc2ccccc2c1CNCCCN1CCOCC1
19&0,-1.1&-1.8,3%,9&3,-0.5&-4.0,C[C@H]1CN([C@@H](C)CO)C(=O)CCCn2cc(nn2)CO[C@@H]1CN(C)C(=O)C1CCCCC1
1,7.9,-4%,3,0.8,COc1ccc(Cl)cc1NC(=O)CCN1C(=O)NC(C)(C)C1=O
5,-11,4%,1,-0.7,CC[C@@]1(C(=O)OC)N[C@H](CN(C)C(=O)c2ccccc2)[C@@H]2C(=O)N(Cc3ccccc3)C(=O)[C@@H]21
2,-0.3,-2%,6,-8.9,CCN1C(=O)[C@H]2[C@@H](c3ccccc3)N[C@]3(CCCN(Cc4ccccc4)C3=O)[C@H]2C1=O
6,-0.4,-4%,5,-0.2,CCN(C[C@H]1N[C@@](CC)(C(=O)OC)[C@H]2C(=O)N(Cc3ccccc3)C(=O)[C@@H]12)C(=O)COC
-15,-1.9,1%,-28,-6.2,Nc1nnnn1/N=C/c1ccccc1Cl
15,-3.8,4%,-1,2.6,O=c1cc(S(=O)(=O)Cc2ccccc2)[nH]c(=O)[nH]1
16&1,-1.3&-1.8,3%,7&4,0.4&1.8,C[C@H]1CN([C@@H](C)CO)C(=O)CCCn2cc(nn2)CO[C@@H]1CN(C)S(=O)(=O)c1ccc2c(c1)OCCCO2
-7,-1.2,2%,-4,-0.5,CC1=C(C(=O)N2CCOCC2)CC(CC(=O)NCc2cccc3ccccc23)C(=O)N1CCC1=CCCCC1 (configuration not stated)
-45,-4.2,5%,-75,-16,O=C1[C@H]2CCC=C[C@H]2[C@H](c2ccccc2Br)N1Cc1ccccc1
0,-2.3,-1%,3,2.3,COc1ccccc1C(=O)NNC(=O)CN(C)S(=O)(=O)c1ccc(Cl)cc1
-5,10,-4%,2,-1.4,Nc1ccc2c(c1)C(=O)c1ccc(Cl)cc1-2
12,-1.1,-7%,19,-1.5,CC(C=Cc1ccccc1)=NNS(=O)(=O)c1ccc([N+](=O)[O-])cc1
4,-1.1,2%,-5,-1.2,COc1ccc(CCNC(=O)CCc2ccccc2O)cc1OC
-3,0.9,3%,19,-3.7,COC(=O)c1ccccc1NN=Nc1ccccc1[N+](=O)[O-]
